High-throughput results (PubChem BioAssay)
GLA inh pH 4.5: inhibitors of human alpha-galactosidase A at pH 4.5; purified enzyme, 4-MU-alpha-Gal fluorescence, pH 4.5; 230,000 tested, under 10 active; AID 1467; activity change, negative = inhibition, % at 105 µM; inconclusive = small, poorly fitted or top-dose-only inhibition, or a rising curve; inactive = flat fitted curve, though single readings scatter; no compound was filed as active;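 also: 0% = full activity with enzyme and -100% = basal without enzyme; dose as in the result columns while the protocol names 77 µM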
Rango complex inh: prevents formation of the Rango-importin beta complex | Rango CFP/YFP FRET sensor + importin beta, 45 min | hit rate 0.031% among 340,000 | Potency, µM (series often up to 92.2 µM), for the others: top-dose inhibition of complex formation | AID 540263 | Q14974; active = rising FRET ratio curve, often small or poorly fitted; inconclusive = mostly compound fluorescence or quenching in the first reads; inactive = flat curves in all reads;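 also: potency is read from the fitted curve at half-maximal effect; 0% = DMSO wells and 100% = buffer wells lacking importin beta; nearly all actives have a fitted effect of over 15% in size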
Target sequence (Q14974 whole entry, looked up): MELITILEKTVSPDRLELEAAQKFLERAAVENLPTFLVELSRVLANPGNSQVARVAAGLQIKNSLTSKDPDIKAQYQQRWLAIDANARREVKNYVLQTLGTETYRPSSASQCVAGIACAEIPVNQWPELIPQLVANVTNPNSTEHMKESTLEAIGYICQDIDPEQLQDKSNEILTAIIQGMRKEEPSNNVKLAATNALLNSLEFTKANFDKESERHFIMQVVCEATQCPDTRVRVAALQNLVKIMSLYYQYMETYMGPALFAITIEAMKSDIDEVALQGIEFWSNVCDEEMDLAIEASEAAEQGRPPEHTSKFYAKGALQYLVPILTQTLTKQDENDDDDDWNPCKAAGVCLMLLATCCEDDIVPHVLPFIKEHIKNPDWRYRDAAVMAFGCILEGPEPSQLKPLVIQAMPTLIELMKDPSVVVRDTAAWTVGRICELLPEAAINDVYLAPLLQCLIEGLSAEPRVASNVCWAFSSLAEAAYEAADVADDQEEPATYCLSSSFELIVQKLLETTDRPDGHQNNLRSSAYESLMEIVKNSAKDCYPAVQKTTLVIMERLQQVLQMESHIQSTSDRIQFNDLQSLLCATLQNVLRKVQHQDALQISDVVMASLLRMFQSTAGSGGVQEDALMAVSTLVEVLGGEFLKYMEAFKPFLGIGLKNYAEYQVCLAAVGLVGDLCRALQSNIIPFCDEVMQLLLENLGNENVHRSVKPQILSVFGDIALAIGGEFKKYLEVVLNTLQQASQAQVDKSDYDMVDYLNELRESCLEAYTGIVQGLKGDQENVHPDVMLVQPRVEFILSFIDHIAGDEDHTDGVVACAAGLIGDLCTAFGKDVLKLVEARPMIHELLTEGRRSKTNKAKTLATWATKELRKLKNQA
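FRET biosensor Rango (snurportin 1 IBB between N-terminal EYFP and C-terminal Cerulean), 50 nM in PBS/1 mM DTT/0.02% Tween-20/0.1% BSA, preincubated 5 min RT with compound; 0.125 microM importin beta added, 45 min RT, CFP/YFP FRET ratio read.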
miR-21 FLuc: miR-21 reporter, rising signal; HeLa miR-21 FLuc reporter, luciferase, 48 h; Potency, µM (top dose mostly 38.3 µM), for inactives: at the top dose reporter change, positive = more light; 340,000 tested, under 10 active; active = well fitted rising curve with a large enough effect; inconclusive = small, poorly fitted or top-dose-only effect; inactive = no such curve, though single readings can be large or run the other way;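 also: % of control where 0% means no effect; miR-21 action dims this reporter so a rising signal means less miR-21 action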
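HeLa miR-21-FLuc reporter line, endogenous miR-21; 2000 cells/well in DMEM/10% FBS; compound titration up to ~40uM final, 48 h, 37 degree Celsius; luciferase detection reagent, 15 min lysis, CCD luminescence.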
Rango release inh: inhibition of RanGTP-driven Rango-importin beta dissociation | O95149+P62826 | Biochemical FRET Rango-importin beta, RanGTP-induced dissociation | Potency, µM (highest dose often 46.1 µM), for the others: top-dose activity change, negative = inhibition | hit rate 0.071% among 340,000 | AID 540253; active means falling FRET ratio curve, often poorly fitted, with flat reads before Ran was added; inconclusive means other falling curves, or compound fluorescence or quenching; inactive means flat or rising ratio curve;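 also: potency is read from the fitted curve at half-maximal effect; % of control where 0% means no effect; nearly all actives have a fitted effect of over 45% in size; -100% = wells without RanGTP and RCC1; the record marks most hits as doubtful in a second field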
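Compounds preincubate 5 min with complex of recombinant Rango and importin beta in PBS with 1 mM DTT. Ran (0.6 uM) loaded with 2 mM GTP plus 0.2 uM RCC1 starts dissociation; FRET is recorded 45 min later.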
Numbers without * were called inactive; ? = inconclusive; . = no result given.

Compound,Rango release inh,GLA inh pH 4.5,Rango complex inh,miR-21 FLuc
CCN(CC)C(=O)CC(c1ccc(F)cc1)c1ccc(OC)cc1 (centres undefined),-3%,3,-3.7%,3%
Cc1ccc(S(=O)(=O)N2CCN(C(=O)CN3C(=O)NC(C)(c4ccc5ccccc5c4)C3=O)CC2)cc1 (centres undefined),-20%,.,-1.1%,.
Cc1cc(-c2nnc(SCC(=O)Nc3ccc(S(N)(=O)=O)cc3)n2N)n[nH]1,-24%,.,-3.5%,0%
CN1CCN(c2ccc(C(CC(N)=O)NC(=O)c3ccccc3)cc2[N+](=O)[O-])CC1 (centres undefined),-6%,.,-3.9%,3%
O=c1[nH]c2ccccc2c(O)c1O,-13%,.,3.1%,-5%
NC(=O)c1ccc[n+](CC(=O)Nc2ccccc2C(=O)O)c1,-22%,.,-0.5%,-4%
CC(C)C(NS(=O)(=O)c1cccs1)C(=O)Nc1nc(C(C)(C)C)cs1 (centres undefined),-3%,-17,3.6%,12%
COc1ccc(S(=O)(=O)N(C)C[C@H]2Oc3c(NS(=O)(=O)c4ccc(F)cc4)cccc3C(=O)N([C@H](C)CO)C[C@@H]2C)cc1,-6%,.,-1.1%,.
CC(=O)Nc1nnc(-c2ccco2)o1,-3%,4,0.1%,0%
Cc1ccc(OCCC(=O)OCC(=O)NC2CCCC2)cc1,40%,.,3.3%,.
CN(c1cccc(Cl)c1)S(=O)(=O)c1cccc(C(=O)NCc2ccncc2)c1,-5%,.,0.8%,.
Cc1ccc2c(c1)c1c(n2CC2COC(C)(C)O2)C(=O)CCC1 (centres undefined),-4%,-2,-3.8%,-2%
COc1ccc(C(=O)N2CCCCC2)cc1S(=O)(=O)Nc1cccc(C(=O)O)c1,0%,3,0.5%,-3%
CCCn1nc(NS(=O)(=O)c2cccc3nonc23)c2cc3cccc(C)c3nc21,-2%,.,6.2%,-5%
O=C(C1CCN(C2CC(=O)N(c3cccc(Cl)c3)C2=O)CC1)N1CCCC1 (centres undefined),-7%,-2,-3.2%,1%
CC(=O)c1cccc(NC(=O)CSc2nnc(C(C)N(C)C)n2Cc2ccccc2)c1 (centres undefined),16%,.,-2.4%,1%
COc1cccc(/C=N/NC(=O)Cn2cnc3c2c(=O)n(C)c(=O)n3C)c1,-2%,-2,0.0%,2%
NC(=O)Nc1ccc(C(=O)OCC(=O)N2CCCC2=O)cc1,-7%,.,-1.5%,.
Cc1c(C(=O)O)oc2ccc(S(=O)(=O)NC3CCCCCCC3)cc12,-5%,-11,-0.8%,-4%
COc1cc(SC)ccc1C(=O)NCCOc1ccc(C)c(C)c1,15%,1,4.6%,-18%
O=C(NCc1ccc(Cl)cc1)C1CCN(S(=O)(=O)c2cccs2)CC1,-17%,.,-3.3%,3%
N=c1c(C(=O)NCc2ccco2)cc2c(=O)n3ccccc3nc2n1Cc1ccccc1,?,1,?,-2%
CCOC(=O)C1CCCN(C(=O)c2cc(-c3ccccc3)nc3ccccc23)C1 (centres undefined),12%,1,-5.6%,3%
CN(Cc1ccccc1N1CCCC1)C(=O)c1cc2ccccc2o1,3%,.,-0.2%,.
O=C(/C=C\c1ccco1)NC(=S)Nc1ccccc1O,-13%,-3,?,-8%
CCCC1CC(CSC(=N)N)OC1=O (centres undefined),-1%,-4,-1.5%,2%
CC(C)n1cnc2c(NCc3ccccc3)nc(NCc3ccccc3)nc21,-21%,-14,0.1%,-1%
Cc1ccccc1OCCC(=O)OCC(=O)Nc1c(C)nn(-c2ccccc2)c1C,0%,.,4.7%,.
Cc1cc(C)cc(NC(=O)Nc2cc(-c3ccccc3)nn2C)c1,8%,-4,1.8%,-10%
CN(C(=O)c1cccc(NC(=O)Cc2ccc(NC(=O)C3CCN(C(=O)C4CCCCC4)CC3)cc2)c1)C1CC1,7%,.,-4.8%,.

Results in GLA inh pH 4.5, Rango complex inh and miR-21 FLuc, for 2 of the compounds above:
Compound	GLA inh pH 4.5	Rango complex inh	miR-21 FLuc
COc1ccc(C(=O)N2CCCCC2)cc1S(=O)(=O)Nc1cccc(C(=O)O)c1	3	0.5%	-3%
CCCn1nc(NS(=O)(=O)c2cccc3nonc23)c2cc3cccc(C)c3nc21	.	6.2%	-5%

Continued:
Compound,Rango release inh,GLA inh pH 4.5,Rango complex inh,miR-21 FLuc
COc1cc(C(=O)NCC(c2ccco2)N(C)C)cc(OC)c1OC (centres undefined),-12%,4,3.6%,-3%
COc1ccccc1NC(=O)CCNS(=O)(=O)c1ccc2[nH]c(=O)oc2c1,7%,.,3.4%,-5%
COCCN1Cc2cccc(C(=O)NCc3ccccc3OC)c2C1=O,8%,-1,-2.1%,2%
Cc1ccnc(N2CCC(C(=O)NC3CCCCCC3)CC2)n1,-11%,-7,-1.5%,-3%
O=C(CCC1CCCN(C(=O)c2ccc3cc[nH]c3c2)C1)N1CCN(c2ccccn2)CC1 (centres undefined),11%,0,0.1%,12%
CC(=O)c1ccc(OCCCC(=O)NCCc2ccc(C(F)(F)F)cc2)cc1,-5%,.,-2.1%,1%
COc1cc(/C=C2\C(=O)ON=C2c2ccccc2)cc(OC)c1OC,-3%,-3,2.4%,-1%
O=S(=O)(Nc1ccc(-c2ccccc2)cc1)c1ccccc1,10%,.,4.0%,.
O=C(CCl)N1CCN(S(=O)(=O)c2ccc3ccccc3c2)CC1,2%,.,-1.5%,?
Cc1cccn2c(=O)c3cc(C(=O)N(C)C)n(C)c3nc12,-11%,12,1.5%,-25%
COC(=O)[C@@]1(C)[C@H]2C(=O)N(Cc3ccccc3)C(=O)[C@H]2[C@H]2CN=C(SCc3ccc(C)cc3)N21,14%,.,4.0%,.
O=C(COc1ccccc1)Nc1ccncc1Cl,0%,.,-1.8%,-44%
Nc1nccc(-c2cccs2)n1,-2%,-4,-6.1%,-2%
O=C(NC1CC2CCCC(C1)N2Cc1ccccc1)c1ccc([N+](=O)[O-])cc1 (centres undefined),13%,.,-0.8%,-5%
CN(C)S(=O)(=O)c1cccc(NC(=O)COC(=O)/C=C/c2ccc(Br)o2)c1,48%,0,2.7%,2%
O=C(NC12CC3CC(CC(C3)C1)C2)c1ccc(=O)oc1,3%,4,1.3%,-1%
Cc1cccc(NC(=O)COc2ccc(Br)cc2C)n1,1%,2,0.4%,-54%
O=C(CC1C(=O)NCCN1Cc1c(F)cccc1Cl)NCCCOc1cccnc1 (centres undefined),-3%,.,-4.2%,-1%
Cc1ccc(Sc2c(C)nn(C(=O)c3cccc(S(=O)(=O)N4CCOCC4)c3)c2C)cc1,-9%,5,-2.7%,-2%
Cc1csc2nc(O)c(C(=O)NCCN3CCOCC3)c(=O)n12,13%,.,-1.3%,.
c1ccc2occc2c1,6%,.,0.8%,.
Cc1ccccc1C(=O)NC1CCN(C(=O)Nc2ccc(F)cc2)CC1,20%,.,-3.2%,8%
Cc1nnc(SCC(=O)NC2CCCCCC2)n1N,1%,.,-0.9%,.
CNC(=S)NNc1nc(C)cc(C)n1,-3%,1,0.4%,1%
O=C(C1CC1)N1CCc2cc(Br)cc(S(=O)(=O)NCCCN3CCCCC3)c21,4%,.,0.3%,0%
COc1ccccc1N(CC(=O)NCCSCc1cccc(C)c1)S(=O)(=O)c1ccccc1,0%,.,?,?
CCC(=O)NCCc1nc2ccccc2n1Cc1ccc(C)cc1,22%,6,0.1%,-6%
CCc1ccccc1NNC(=O)CCc1ccccc1,-5%,-2,-1.6%,-13%
CCCCOc1ccc(C(=O)Oc2cccnc2)cc1,1%,.,-0.4%,-5%
COc1ccc(CCNC(=O)CC(NC(=O)c2ccccc2Cl)c2ccccc2)cc1 (centres undefined),-14%,1,-4.2%,-2%
CCc1nc(Nc2cccc(O)c2)c2oc3ccccc3c2n1,6%,.,4.6%,17%
Cc1cc(F)c(F)c(C(=O)N2CCOCC2)c1Cl,7%,0,0.8%,0%
CCOC(=O)COc1nc(-c2ccccc2)cc(-c2ccco2)c1C#N,-13%,1,-0.1%,-6%
O=S(=O)(c1ccc(NC(=S)N2CCN(c3ccccc3F)CC2)cc1)N1CCOCC1,3%,-8,3.3%,15%
COc1ccc(NC(=O)CSc2ccc(-c3cccnc3)nn2)c(OC)c1,-9%,.,0.9%,-4%
Cc1c(NC(=O)[C@@H](NC(=O)c2ccc(Cl)c([N+](=O)[O-])c2)C(C)C)c(=O)n(-c2ccccc2)n1C,9%,.,4.9%,.
COc1ccc(NC(=O)CCNS(=O)(=O)c2cc(Br)cnc2N)cc1OC,-5%,.,-2.6%,1%
O=C(NCC(=O)N(c1cccnc1)C(C(=O)NC1CCCC1)c1cccs1)c1ccco1 (centres undefined),7%,-2,?,-5%
CC(=O)n1c(-c2ccccc2)c(-c2ccccc2)n(C)c1=O,0%,.,3.3%,.
O=C1/C(=C/c2ccncc2)SC(=S)N1N1CCOCC1,9%,6,2.3%,3%
O=Cc1cnc(N2CCCCC2)s1,5%,-6,-2.9%,-11%
CC(C)(C)NC(=O)c1cnn2c1NC(c1ccc(F)cc1)CC2C(F)(F)F (centres undefined),12%,2,3.1%,0%
CC1CC=C(O)C12OCC(C)(C)CO2 (centres undefined),-3%,.,3.1%,.
COc1ccc(C)cc1NC(=O)C1CCN(C(=O)c2ccco2)CC1,-6%,.,0.7%,-2%
CCOc1nc(NCCO)nc(Nc2cc(Cl)ccc2OC)n1,0%,6,0.3%,3%
CCN(C(=O)c1ccc2c(OC)n(CC)nc2c1)c1ccc(OC)cc1,40%,6,-0.8%,-6%
O=C1CN(c2ccccc2)C(=S)N1C(=O)c1ccc(Br)cc1,33%,.,0.9%,-52%
C=C(C)CSc1nnc([C@@H]2CCCN2C(=O)OC(C)(C)C)o1,18%,-1,3.1%,-5%
CCOC(=O)C(=CNc1ccc(Oc2cncc(Cl)c2)nc1)C(=O)OCC,-1%,-2,-0.5%,2%
Cn1c(CCCNC(=O)c2cccs2)nc2ccccc21,0%,-1,0.5%,-3%
Cc1nnsc1C(=O)N/N=C/c1c(F)cccc1Cl,7%,1,4.0%,-1%
Cc1ccc(C(=O)NCCCc2ccccc2)s1,-1%,-2,-0.2%,-46%
COc1cc(C2NC(=S)NC3=C2CCc2ccccc23)cc(OC)c1OC (centres undefined),-22%,-1,-3.8%,-9%
O=C(CSc1nnc(CNC(=O)c2c(F)cccc2F)o1)NCCc1ccccc1,-8%,.,1.6%,2%
Fc1ccc(Oc2cnc3ccccc3n2)cc1,2%,-2,-0.6%,1%
O=C(CC(=O)Nc1cccnc1)Nc1cccnc1,25%,.,-0.8%,6%
O=C(c1ccc(NS(=O)(=O)c2ccc3[nH]c(=O)[nH]c3c2)cc1)N1CCCCC1,16%,.,9.2%,.
CC(C)CNC(=O)COC(=O)CCC(=O)c1ccc(F)cc1,1%,6,0.1%,2%
O=C(Nc1ccc(S(=O)(=O)Nc2cnc3ccccc3n2)cc1)c1ccc(Br)o1,-16%,-8,2.6%,-5%
N#Cc1c(Nc2ccccc2)s[nH]c1=O,-10%,2,?,2%

Later entries:
Compound,Rango release inh,GLA inh pH 4.5,Rango complex inh,miR-21 FLuc
COc1cc(C(=O)NCCc2ccc(F)cc2)c([N+](=O)[O-])cc1OC,4%,-5,-1.8%,-2%
CC1CN(C(=O)c2ccc(S(=O)(=O)Nc3ccccc3Cl)cc2)CC(C)O1 (centres undefined),14%,.,7.2%,0%
CCOc1ccc(-c2c(C(=O)N/N=C/c3ccc(Cl)cc3)nnn2-c2nonc2N)cc1,22%,.,3.0%,1%
Cc1ccccc1CN1[C@@H](C(C)C)COCCS1(=O)=O,-4%,.,-4.9%,.
Nc1c(C(=O)c2cccs2)oc2ccccc12,?,6,?,-34%
Cc1cc(C)c(C)c(S(=O)(=O)N(C)C2CCN(C)CC2)c1C,-1%,.,2.1%,0%

Not all compounds are listed. The share of hits here may be higher or lower than overall.
